Compound activity from PubChem.
RE007 growth inh: qHTS Assay for Inhibitors of the HIV-1 protein Vpr | S. pombe RE007 Vpr strain, BacTiter-Glo ATP luminescence, 24 h; control for the full effect not named in the record | 360,000 tested, 0.21% active | Potency, µM (highest dose often 92.2 µM), for inactives: top-dose activity change, negative = less growth | AID 651644, 2012; active = well fitted falling curve with a large enough effect; inconclusive = small, poorly fitted or top-dose-only effect; inactive = no such curve, though single readings can be large or run the other way;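 also: % is scaled to controls: 0 for no effect and ±100 for the full control effect; nearly all actives have a fitted effect of over 50% in size; the assay follows cell death caused by Vpr and the record does not say whether a fall means rescue or toxicity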
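Fission yeast RE007 carrying one integrated HIV-1 vpr copy, seeded at OD 0.01 in PMG+AL medium with 23 nL pinned compound. Grown 24 h at 30 degrees; viability read by BacTiter-Glo luminescence after 5 min.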
Cruzain noTriton: qHTS Assay for Promiscuous and Specific Inhibitors of Cruzain (without detergent) | AID 1476, 2009 | 200,000 tested, 2.3% active | Potency, µM, for inactives: max response, negative = inhibition, most hits filed as inhibitors | purified cruzain, Z-FR-AMC fluorescence, no detergent | Cruzipain (Trypanosoma cruzi), P25779; active = well fitted curve in the direction sought with a large enough effect; inconclusive = small, poorly fitted or top-dose-only effect, or another doubt; inactive = no such curve, though single readings can be large; an effect the other way counts as inactive or inconclusive;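 also: plate controls were enzyme without inhibitor for no effect and buffer without enzyme for full effect; nearly all actives have a fitted effect of over 40% in size; top concentration of the series not given in the record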
Target sequence (P25779 123-467 limits assumed): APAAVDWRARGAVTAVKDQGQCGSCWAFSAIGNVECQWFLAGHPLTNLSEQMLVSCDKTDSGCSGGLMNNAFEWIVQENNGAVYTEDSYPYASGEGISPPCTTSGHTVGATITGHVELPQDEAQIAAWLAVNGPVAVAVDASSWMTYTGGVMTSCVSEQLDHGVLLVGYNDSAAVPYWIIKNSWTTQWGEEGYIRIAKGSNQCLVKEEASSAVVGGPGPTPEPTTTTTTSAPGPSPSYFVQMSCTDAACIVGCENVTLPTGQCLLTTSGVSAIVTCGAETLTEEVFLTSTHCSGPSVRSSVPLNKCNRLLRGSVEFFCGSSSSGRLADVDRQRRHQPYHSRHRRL
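Detergent-free condition (0.00005% Triton X-100) in acetate buffer pH 5.5 with DTT. 1.5 nM enzyme and compound were pre-mixed 15 min, then 2 uM Z-FR-AMC substrate added; reaction progress from fluorescence change between first and third reads (60 s).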
Marburg entry inh: qHTS for inhibitors of binding or entry into cells for Marburg Virus; Marburg virus pseudotyped entry inhibition, cell reporter; control for the full effect not named in the record; about a third of the inactives were read at about 46 µM; Potency, µM (series often up to 37.8 µM), without a hit: top-dose activity change, negative = inhibition, actives largely listed as inhibitors; 300,000 tested, 1.8% active; AID 540276, 2011; active = well fitted inhibition curve with a large enough effect; inconclusive = small, poorly fitted or top-dose-only effect, or effect the other way; inactive = flat fitted curve, though single readings scatter; tested in HEK293 cells; about a fifth of its hits are not listed in these tables; also: % is scaled to controls: 0 for no effect and ±100 for the full control effect; luciferase read-out
Lassa entry inh: qHTS for Inhibitors of binding or entry into cells for Lassa Virus; Lassa virus pseudotype entry inhibition, cell reporter; control for the full effect not named in the record; Potency, µM (highest dose often 37.9 µM), without a hit: at the highest dose activity change, negative = inhibition, hits mostly inhibitors; 300,000 tested, 1.2% active; AID 540256, 2011; active means well fitted inhibition curve with a large enough effect; inconclusive means small, poorly fitted or top-dose-only effect, or effect the other way; inactive means flat fitted curve, though single readings scatter; tested in HEK293 cells; also: % is scaled to controls: 0 for no effect and ±100 for the full control effect; nearly all actives have a fitted effect of over 50% in size; luciferase read-out
NS1 function inh: qHTS Assay for Inhibitors of Influenza NS1 Protein Function. Potency, µM (titrated, usually from 46.1 µM), for inactives: top-dose activity, positive = more growth. 270,000 tested, 0.4% active. S. cerevisiae slowed by influenza A NS1, growth recovery by OD600; also: actives are rising curves; nearly all actives have a fitted effect of over 50% in size
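OD600 was taken as the measure of yeast growth restored by compound in an NS1-expressing S. cerevisiae strain. Cells had been washed out of glucose medium and diluted 1:100 into galactose -URA medium, pH 6.0.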
Cruzain inh Det: qHTS Assay for Promiscuous and Specific Inhibitors of Cruzain (with detergent). purified cruzain, Z-FR-AMC fluorescence, 0.01% Triton. Potency, µM, without a hit: max response, negative = inhibition, hits mostly inhibitors. 200,000 tested, 0.43% active; active = well fitted curve in the direction sought with a large enough effect; inconclusive = small, poorly fitted or top-dose-only effect, or another doubt; inactive = no such curve, though single readings can be large; an effect the other way counts as inactive or inconclusive;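 also: plate controls were neutral wells for no effect and buffer without enzyme for full effect; nearly all actives have a fitted effect of over 40% in size; top concentration of the series not given in the record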
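Detergent-containing run (0.01% Triton X-100) in acetate buffer pH 5.5 with 5 mM DTT: enzyme at 1.5 nM final, 15 min compound preincubation at room temperature, then 2 uM Z-FR-AMC substrate. Activity taken as 60 s fluorescence increase at 360/450 nm.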
SARS PLpro yeast: qHTS of Yeast-based Assay for SARS-CoV PLP. Potency, µM (series often up to 32.9 µM), for inactives: at the highest dose activity, positive = growth rescue. 330,000 tested, 0.19% active. AID 485353, 2010. S. cerevisiae expressing SARS-CoV PLpro, growth rescue; control for the full effect not named in the record; also: 0% is about no effect; nearly all actives have a fitted effect of over 55% in size; growth read by luminescence after 48 h
StopGo reporter: High Throughput Screening for Foot and Mouth Disease Virus Antivirals. 410,000 tested, 1.2% active. human cells with a luciferase reporter of 2A StopGo recoding; control for the full effect not named in the record. Potency, µM (doses to about 57.9 µM), for inactives: top-dose signal change, negative = less light; active = well fitted falling curve with a large enough effect; inconclusive = small, poorly fitted or top-dose-only effect; inactive = no such curve, though single readings can be large or run the other way; tested in HEK293T cells; also: % is scaled to controls: 0 for no effect and ±100 for the full control effect; nearly all actives have a fitted effect of over 45% in size; luciferase light after 4 h
The depositor's hits bear a star; ? = inconclusive; · = no result given; & = joins results of further samples; [ ] = another dose, or the depositor's remark. Unless noted, calls follow the shape of the dose curve; as a rule, active means well fitted rising curve with a large enough effect; inconclusive means small, poorly fitted or top-dose-only effect; inactive means no such curve, though single readings can be large or run the other way. Potency is read from the fitted curve at half-maximal effect.

SMILES	RE007 growth inh	Cruzain noTriton	Marburg entry inh	Lassa entry inh	NS1 function inh	Cruzain inh Det	SARS PLpro yeast	StopGo reporter
CC(=O)Nc1ccc(/C(C)=N/Nc2nc(N3CCOCC3)nc(N3CCOCC3)n2)cc1	4%	·	?	11%	·	·	1%	-15%
CN(N=Nc1cccc([N+](=O)[O-])c1)c1ccccc1	-10%	·	?	1%[46.1 µM]	3%	·	-1%	8%
COc1ccccc1CCNC(=O)c1ccc(-c2nc(CSc3ccc(C)cc3)c(C)o2)cc1	·	-4%	·	-28%[46.1 µM]	·	-6.8%	·	?
CS(=O)(=O)c1ccc(Cl)c(NC(=O)Cc2ccccc2F)c1	2%	·	7%[14.2 µM]	-14%	5%	·	0%	24%
CC1(C)N=C(N)NC(Nc2ccc(Cl)cc2)=N1	-9%	·	-1%[46.1 µM]	7%[46.1 µM]	·	·	·	10%
Cc1cccc(N=C2NC(=O)CS2)c1C	11%	-2%	-4%	5%	9%	3.4%	-4%	8%
COc1cc(C(=O)Sc2ccc(Cl)cc2)cc(OC)c1OC	-18%	12%	-24%	-3%	-33%	-4.1%	0%	?
O=C(NCc1ccco1)c1cc(-c2ccncc2)nc2ccccc12	4%	-9%	?	?	?	-5.7%	0%	0%
C=CCn1c(C)cc(C(=O)COC(=O)/C=C/c2c(C)nn(C3CCS(=O)(=O)C3)c2Cl)c1C (stereo unspecified)	16%	·	?	-9%	·	·	1%	?
C#CCOCCOCCOCCNc1nc(N2CCN(C(=O)[C@H](CCC(=O)O)n3cc(C(N)Cc4ccc(O)cc4)nn3)CC2)nc(N2CCN(C(=O)[C@H](Cc3cc4ccccc4[nH]3)n3cc(C(N)[C@H](C)CC)nn3)CC2)n1 (stereo partly specified)	5%	·	·	·	5%	·	0%	-12%
CCOc1ccc(CNC(=O)c2ccc3c(c2)nnn3C2CCCC2)cc1	·	-6%	·	?	·	-1.9%	·	52%[activator]
CCCCC(c1nnnn1C1CCCC1)N1CCN(C2CCCCC2)CC1 (stereo unspecified)	-3%	4%	-13%	-1%	-1%	3.1%	30%	0%
CCc1ccc(-c2cc3c(=O)n(CC(=O)NCc4ccccc4F)ncn3n2)cc1	1%	·	-1%[46.1 µM]	35%[46.1 µM]	-2%	·	2%	13%
Cc1ccc(OCC(=O)NNC(=O)c2cccnc2)cc1	19%	-12%	17%	-9%	3%	1.8%	?	16%
CS(=O)(=O)c1ccc(Cl)c(NC(=O)CNC(=O)c2ccc3c(c2)OCO3)c1	-7%	·	0%[46.1 µM]	-27%[46.1 µM]	·	·	4%	9%
O=C(Nc1cccc2cccnc12)C1CCCC1	-5%	-8%	6%	-6%	-12%	0.3%	7%	18%
O=C(C[n+]1cc(-c2ccc(F)cc2)n2c1CCC2)Nc1nc(-c2ccc(F)cc2)cs1	13%	4%	13%	16%	-6%	-12%	-2%	-13%
O=C(O)CCCC(=O)Nc1ccc(Cl)cc1	12%	·	21%[46.1 µM]	0%	5%	·	0%	-12%
CCC(CCC(=O)Nc1cccc(C(=O)O)c1)C(=O)O (stereo unspecified)	3%	4%	7%	11%	-1%	2.5%	12%	-21%
COc1cccc(Cn2cnc3c(NS(=O)(=O)c4ccc(Cl)cc4)c(C)c(C)cc32)c1	10%	?	?	-17%	6%	-0.6%	0%	-2%

As a working copy, part of the list above.
SMILES	RE007 growth inh	Cruzain noTriton	Marburg entry inh	Lassa entry inh	NS1 function inh	Cruzain inh Det	SARS PLpro yeast	StopGo reporter
COc1ccccc1CCNC(=O)c1ccc(-c2nc(CSc3ccc(C)cc3)c(C)o2)cc1	·	-4%	·	-28%[46.1 µM]	·	-6.8%	·	?
CS(=O)(=O)c1ccc(Cl)c(NC(=O)Cc2ccccc2F)c1	2%	·	7%[14.2 µM]	-14%	5%	·	0%	24%
CC1(C)N=C(N)NC(Nc2ccc(Cl)cc2)=N1	-9%	·	-1%[46.1 µM]	7%[46.1 µM]	·	·	·	10%
Cc1cccc(N=C2NC(=O)CS2)c1C	11%	-2%	-4%	5%	9%	3.4%	-4%	8%
COc1cc(C(=O)Sc2ccc(Cl)cc2)cc(OC)c1OC	-18%	12%	-24%	-3%	-33%	-4.1%	0%	?
O=C(NCc1ccco1)c1cc(-c2ccncc2)nc2ccccc12	4%	-9%	?	?	?	-5.7%	0%	0%

More results follow:
SMILES	RE007 growth inh	Cruzain noTriton	Marburg entry inh	Lassa entry inh	NS1 function inh	Cruzain inh Det	SARS PLpro yeast	StopGo reporter
C/C(CC(=O)Nc1ccc(C)c(Cl)c1)=N\NC(=O)c1ccncc1	-30%	·	?	·	·	·	4%	9%
Cc1cc(=O)oc2c(C)c(OCC(=O)N3CCC(C(=O)O)(c4ccccc4)CC3)ccc12	5%	·	·	·	?	·	-3%	-19%
COc1ccc(CNC(=O)c2c(O)c3ccccc3n(C)c2=O)cc1	-3%	·	?	-8%	-14%	·	-2%	-7%
O=C(Nc1ccc(F)cc1)c1cccc(C(=O)Nc2ccc(F)cc2)c1	2%	·	·	·	4%	·	-1%	16%
Cc1nn(-c2ccccc2)c(Cl)c1/C=N/Nc1nncc(=O)[nH]1	-6%	·	·	·	-2%	·	-1%	-19%
CCC(C(=O)N1CCN(c2cccc(Cl)c2)CC1)c1ccccc1 (stereo unspecified)	-11%	0%	-15%	-22%	-88%	-5.5%	-25%	?
COc1ccc(C2=CSC3=NCCN23)cc1	0%	·	?	0%[46.1 µM]	2%	·	0%	-15%
O=C(Nc1cccc(O)c1)c1ccccc1[N+](=O)[O-]	6%	·	13%[46.1 µM]	-2%[46.1 µM]	3%	·	1%	20%
CCOC(=O)C1C(c2ccc(OC)cc2)N(C)OC1(O)C(F)(F)F (stereo unspecified)	12%	·	-13%[46.1 µM]	1%	·	·	-2%	-5%
COc1ccccc1C(=O)N/C(=C/c1ccccc1)C(=O)NC(CCSC)C(=O)O (stereo unspecified)	10%	0%	5%	5%	19%	-1.1%	4%	·
CCCCCCN(C(=O)CCCCCN1C(=O)NC(c2ccc(-c3ccccc3)cc2)C(C(=O)OCc2ccccc2)=C1C)C(C(=O)NCCCC)c1ccc(OCC(=O)OC)cc1 (stereo unspecified)	·	-27%&-4%	10%&10%	5%	21%	-0.9%&0.0%	2%	·
CC12CCC(C(=O)Nc3cccc(NC(=O)C45CCC(C)(C(=O)O4)C5(C)C)n3)(OC1=O)C2(C)C	-1%	?	17%[46.1 µM]	4%	-5%[9.22 µM]	-1.3%	-5%	0%
CS(=O)(=O)c1cnc(-c2cccnc2)nc1N	?	·	1%[46.1 µM]	-8%	5%	·	1%	5%
COCC(C)NCc1ccccc1C (stereo unspecified)	24%	-3%	0%	9%	-3%	7.9%	1%	-14%
CCc1ccccc1OCC(=O)N(CC)CC(=O)NCc1ccc(F)cc1	-8%	9%	0%	·	-2%	0.9%	5%	6%
CN1CCN(C(=O)c2ccc(N(Cc3ccccc3Cl)S(C)(=O)=O)cc2)CC1	-3%	-5%	10%[46.1 µM]	-4%	6%	-0.6%	1%	-5%
Nc1cccc(-c2cn(-c3cc4cc(C#CC5(O)CCCCC5)ccc4oc3=O)nn2)c1	3%	·	0%	·	·	·	0%	-23%
Cc1ccccc1NC(=O)N1CCCC1C(=O)NCc1cccs1 (stereo unspecified)	20%	0%	4%	0%	2%	0.8%	?	10%
O=S(=O)(c1ccc2nc(N3CCN(c4ccccc4)CC3)ccc2c1)N1CCCCC1	5%	0%	·	4%[46.1 µM]	6%	9.6%	-4%	-8%&-19%
O=C1C=C(c2cccs2)C[C@H](c2ccccc2)[C@H]1n1nnc([N+](=O)[O-])n1	-1%	?	1.3µM*	?	3%	-8.1%	-95%	-2%
COc1ccc(Cn2c(-c3ccco3)nc3c(c(=O)c4ccccc4n3C)c2=O)cc1	11%	·	·	·	-3%	·	-2%	4%
Cc1ccc(NC(=O)C(C)[n+]2ccccc2)cc1[N+](=O)[O-] (stereo unspecified)	-8%	-13%	7%	?	10%	-1.4%	-12%	0%
CN(C)c1ccc(CNC2CC(C)(C)NC(C)(C)C2)cc1	0%	0%	?	12µM*	-6%	3.5%	-2%	11%
COc1ccc(C2CCCN2C(=O)Nc2ccc(F)cc2)cc1OC (stereo unspecified)	1%	6%	5%	-1%	5%	2.7%	7%	-3%
O=C1Cc2c(-c3ccccc3)cc(-c3cccc(Cl)c3)nc2-c2ccccc2N1	13%	·	-21%	-2%	·	·	·	-28%
CCOC(=O)c1ccccc1NC(=O)CCc1c(C)nc2c(c1C)c(=O)n(C)c(=O)n2C	·	-2%	-12%[46.1 µM]	2%[46.1 µM]	·	1.3%	·	-13%
O=C1OC(NCc2cccnc2)(c2ccc(Cl)cc2)c2ccccc21 (stereo unspecified)	-1%	·	?	?	-2%	·	0%	-12%
N#Cc1c(-c2ccccc2)ccn(Cc2cccc(Cl)c2)c1=O	-14%	1%	-14%	-9%	12%	-4.4%	2%	-9%
O=S(=O)(c1ccccc1)N1CCN(c2nc(-c3cccs3)nc3ccccc23)CC1	·	16µM*	-1%	-3%	2%	-8.4%	-21%	·
O=C(Cn1cc2c(n1)CCCC2)NCCCN1CCN(C2CCCCC2)CC1	-5%	-17%	·	·	8.9µM*	2.4%	3%	-22%
CC(=O)Oc1cc2cccc(OC(C)=O)c(=O)c2c(OC(C)=O)c1OC(C)=O	?	·	·	·	-59%	·	8.9µM*	?
CCCn1c(C)cc(/C=C(\C#N)C(=O)O)c1C	7%	1%	2%	·	16%	-8.9%	6%	-11%
